Calb FLC = C. albicans growth inhibition with fluconazole, primary screen, CaCi-2 strain, Alamar Blue fluorescence; C. albicans CaCi-2 (fluconazole-resistant clinical isolate) + fluconazole, 48 h; growth inhibition, % (concentration not given with the values); hit rate 0.57% among 300,000; AID 1979, 2009;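 active means most replicates above 75%; inconclusive means exactly half above 75%; inactive means most below 75%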;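 further: all wells also contain fluconazole at 8 µg/ml as a sub-toxic cotreatment; 0% = median of DMSO wells and 100% = median of geldanamycin control wells; wells of about 8 µL received 7.5 nL stock; the first replicate is given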
LANA-H2A inh = blockers of LANA interaction with H2A/H2B – biochemical, FP readout, HTS, primary screen; Protein LANA1 (Human herpesvirus 8 type P (isolate GK18)), Q9QR71; cell-free LANA-H2A/H2B peptide, fluorescence polarization; inhibition, % (concentration not given with the values); hit rate 0.6% among 320,000; in the data active means inhibition mostly above about 10%, no sharp cut-off; inactive means mostly below about 6.7%;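 further: stock transfer was 7.5 nL into about 10 µL; 0% = median of vehicle wells and 100% = median of positive control wells; one replicate is shown; the record names a cut of 25% in any replicate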
Target sequence (Q9QR71 whole entry, looked up): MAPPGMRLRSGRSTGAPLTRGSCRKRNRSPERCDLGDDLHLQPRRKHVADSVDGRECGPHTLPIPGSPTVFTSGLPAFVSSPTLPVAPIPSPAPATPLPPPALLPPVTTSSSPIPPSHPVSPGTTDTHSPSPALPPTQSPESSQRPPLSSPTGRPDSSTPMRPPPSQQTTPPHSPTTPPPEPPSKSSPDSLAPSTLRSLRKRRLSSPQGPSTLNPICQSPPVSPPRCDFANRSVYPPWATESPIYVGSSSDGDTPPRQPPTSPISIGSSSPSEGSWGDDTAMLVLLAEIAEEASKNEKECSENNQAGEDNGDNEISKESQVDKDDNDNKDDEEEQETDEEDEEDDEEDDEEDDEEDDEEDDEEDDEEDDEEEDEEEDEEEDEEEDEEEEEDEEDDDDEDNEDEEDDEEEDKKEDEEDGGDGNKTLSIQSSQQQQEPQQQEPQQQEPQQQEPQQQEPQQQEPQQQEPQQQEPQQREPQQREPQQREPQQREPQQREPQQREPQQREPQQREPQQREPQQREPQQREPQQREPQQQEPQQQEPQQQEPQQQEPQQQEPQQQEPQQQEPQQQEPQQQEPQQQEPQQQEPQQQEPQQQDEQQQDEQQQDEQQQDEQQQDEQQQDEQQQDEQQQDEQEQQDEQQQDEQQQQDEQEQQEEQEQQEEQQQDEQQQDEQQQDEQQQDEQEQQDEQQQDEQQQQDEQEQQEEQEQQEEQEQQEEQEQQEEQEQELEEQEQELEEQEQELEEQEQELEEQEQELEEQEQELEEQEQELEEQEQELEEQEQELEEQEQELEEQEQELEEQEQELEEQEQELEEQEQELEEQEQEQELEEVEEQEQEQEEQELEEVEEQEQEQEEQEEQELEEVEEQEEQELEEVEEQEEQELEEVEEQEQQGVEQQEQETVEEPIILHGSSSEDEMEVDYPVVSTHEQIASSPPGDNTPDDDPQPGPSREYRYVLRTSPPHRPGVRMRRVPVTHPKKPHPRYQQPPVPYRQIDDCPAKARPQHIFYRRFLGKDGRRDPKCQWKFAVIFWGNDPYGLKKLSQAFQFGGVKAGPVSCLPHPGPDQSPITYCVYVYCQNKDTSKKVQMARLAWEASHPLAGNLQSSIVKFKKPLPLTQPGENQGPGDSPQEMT
AF4-AF9 inh = inhibitors of AF4 peptide binding to AF9, primary screen, biochemical, AlphaScreen, biotin-AF4 peptide, FLAG-AF9, single point; inhibition, % at 10 µM; hit rate 0.47% among 350,000; AID 651704, 2012;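 active means every replicate reaching a set inhibition limit, whatever the replicate mean, cut at about 25% in these data; inconclusive means mean inhibition reaches that limit but some replicates miss it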;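 further: 0% = plate neutral control median and 100% = total signal loss; the record names both 10 and 1 µM as test concentration; the first replicate is given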
Bfl-1 A1 inh = caspase 3/7 activation in MEF A1-2A-BIM cells, primary screen, A1 inhibitor project, cell-based, luminescence, HTS; Caspase-Glo 3/7 luminescence, 3 h; percent of clofoctol response, vehicle zero; caspase activation, % (no concentration beside the values); hit rate 0.066% among 330,000;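 active means over half of replicate activation scores above 10%, or exactly half above 10 with the replicate mean above 10; inconclusive means replicate mean below 10 yet half the replicates above 10; inactive means over half of replicates below 10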;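 further: wells of about 30 µL received 50 nL stock; many hits fall short of the cut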
Vif A3G = inhibitors of Vif binding to APOBEC3G peptide, primary screen, biochemical, TR-FRET, GST-Vif 1-94, biotin-A3G peptide, dose response retest (AID 1117319). Virion infectivity factor (Human immunodeficiency virus type 1 group M subtype B (isolate …. TR-FRET GST-Vif / biotin-A3G peptide binding; higher % means a stronger effect; test concentration not given here; strong numbers were not always called active. one-dose inhibition, %; IC50 in µM for titrated hits. hit rate 0.57% among 260,000;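 active means above the screen mean plus three standard deviations and confirmed in dose response; inconclusive means results disagree or hit not tested in dose response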;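 further: Vif residues 1-94 fused to GST binding biotinylated APOBEC3G peptide 110-148; 0% = full assay without inhibitor and 100% = GST in place of GST-Vif; retest series ran down from 100 µM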
RanGTP-Impb inh = inhibitors of RanGTP-importin-beta interaction, primary screen, biochemical, FRET, CFP-Ran, YFP-importin-beta, homogeneous | cell-free CFP-Ran/YFP-importin-beta FRET ratio | inhibition, % (no concentration beside the values) | Ran GTPase (GTP-bound) - importin-beta complex | hit rate 1.1% among 300,000;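 active means most replicates above 15%; inconclusive means exactly half above 15%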;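 further: 0% = DMSO wells and 100% = Ran loaded with GDP instead of GTP; wells of about 40 µL received 100 nL stock; the first replicate is given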
Beta cell apopt = inhibitors of cytokine-induced beta cell apoptosis, primary screen, luminescence; INS-1E cytokine-induced death, ATP luminescence, 48 h; percent of positive-control rescue, neutral wells zero; hit rate 0.8% among 300,000; protection from apoptosis, % (test concentration not listed);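 active means all replicates at 75% or more, or half of them and the mean; inconclusive means half reach 75% but not the mean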;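 further: 0% = cytokine-treated negative control wells and 100% = positive control rescue; higher means more ATP so stronger rescue from cytokine killing; wells of about 40 µL received 100 nL stock; the first replicate is given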
T cruzi repl = inhibitors of intracellular T. cruzi growth, primary screen, luminescence, NIH3T3 host cells | T. cruzi beta-gal in NIH3T3, 90 h | inhibition, % (concentration not given with the values) | hit rate 1.4% among 300,000;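 active means mean inhibition across valid replicates above about 55%, limit read from the data; inconclusive means mean below that limit but half or more replicates reach it; inactive means mean below it, under half of replicates reach it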;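 further: signal also drops with host cell toxicity which is not excluded here; 0% = plate median of DMSO wells and 100% = zero luminescence signal; higher percent means less beta-gal luminescence so fewer parasites; stock transfer was 50 nL into about 50 µL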
* = called active by the depositor; ? = inconclusive; . = no result given; & = joins results of further samples.

SMILES | Calb FLC | LANA-H2A inh | AF4-AF9 inh | Bfl-1 A1 inh | Vif A3G | RanGTP-Impb inh | Beta cell apopt | T cruzi repl
CCN(C(=O)COC(=O)Cc1c(F)cccc1Cl)c1c(N)n(Cc2ccccc2)c(=O)[nH]c1=O | . | 7.8 | -0.7 | 1.0 | 1% | . | -9 | .
NC(=O)c1ccc(NC(=O)Cc2csc(-c3ccccc3)n2)cc1 | -2 | 3.0 | -19 | -0.1 | -1% | ? | -1 | 4
COC(=O)c1ccc(C(NC(=O)OCc2ccccc2)/C(C)=C/[C@@H](C)C(=O)NCc2ccc(OC)c(OC)c2)cc1 (stereo partly drawn) | 7 | -0.6 | . | -0.3 | 6% | -0.6 | -4 | 17
COc1ccc(CCCC(=O)NCc2ccccc2)cc1C | -6 | -0.7 | -1.9 | 1.4 | 7% | -1.0 | -3 | 0
Cc1nn(-c2ccccc2)c(N2CCCC2)c1/C=N/NC(=O)c1cc(-c2cccnc2)nc2ccccc12 | -11 | -4.6 | . | -0.2 | -3% | -3.1 | 1 | 57*
COc1ccc(NC(=O)CON=CC(=O)Nc2ccc(C)cc2)c(OC)c1 | . | -3.6 | 0.0 | -0.5 | . | . | 0 | .
COc1cc(C2=NOC(C(=O)NCc3ccccn3)C2)cc(OC)c1OC (stereo not drawn) | -9 | -2.8 | . | 1.1 | 6% | -3.1 | -4 | -15
CSc1ccc(/C=C(\NC(=O)c2ccccc2)C(=O)NCCN2CCOCC2)cc1 | 3 | -1.2 | -0.5 | 0.3 | . | 1.2 | -3 | -1
CC1Cc2ccccc2N1C(=O)COC(=O)c1cccc(Br)c1 (stereo not drawn) | . | -2.0 | 1.4 | 2.1 | -14% | . | -5 | .
CCOc1cc(N2CCOCC2)c(OCC)cc1NC(=O)COC(=O)c1cc2ccccc2cc1O | -3 | -3.3 | . | -0.5 | 17% | 6.7 | -1 | 1
COc1ccc(-c2cc(C)no2)cc1S(=O)(=O)N1CCN(c2ccccn2)CC1 | 12 | -0.8 | 2.3 | ? | . | 3.4 | -7 | 29
O=C(Nc1ccc2c(c1)CCC2)c1ccccc1F | -7 | 2.2 | . | -6.3 | . | 3.0 | 12 | -5
COc1ccc(OCC(=O)Nc2c(C(=O)N3CCC(N4CCCCC4)CC3)oc3ccccc23)cc1 | 17 | 5.1 | 4.5 | -0.2 | . | 4.8 | -5 | ?
Cc1sc2c(c1C)c(=O)n(-c1ccc(Cl)cc1)c(=O)n2Cc1cc(=O)n2ccccc2n1 | -2 | 0.1 | . | -0.6 | 2% | -1.8 | 0 | -2
O=C(c1cnsn1)N1CCC(CO)(Cc2cccc(F)c2)CC1 | -23 | 0.1 | 4.3 | 0.7 | 2% | 0.9 | 2 | 0
COc1ccc(N(CC(=O)N2CCc3ccccc32)S(=O)(=O)c2c(C)n[nH]c2C)cc1 | -11 | -0.8 | . | -0.2 | -10% | -3.0 | -7 | -13
CCc1ccc(-c2cc(C(=O)Nn3cnnc3)c3ccccc3n2)cc1 | -4 | -2.2 | 5.0 | -7.2 | 2% | 1.4 | 34 | -11
COc1ccc(-c2cc(C)no2)cc1S(=O)(=O)NCc1cccc(C)c1 | 9 | 0.2 | -3.1 | 1.2 | . | 1.1 | 1 | -18
O=c1cc(-c2ccccc2)c2ccc(O)cc2o1 | 74 | -1.2 | 2.9 | -1.0 | . | -0.7 | . | 18
CC1CN=C2C(C(=O)Nc3ccccc3)=C(O)CC(c3ccccc3)N21 (stereo not drawn) | 26 | . | . | 0.7 | -9% | 3.5 | 4 | 24
Cc1c(Nc2nc(-c3cccc([N+](=O)[O-])c3)cs2)c(=O)n(-c2ccccc2)n1C | 29 | 3.4 | 2.2 | 0.7 | -3% | -0.1 | 5 | -4
Fc1ccccc1C(c1nnnn1Cc1ccc2c(c1)OCO2)N1CCN(Cc2ccco2)CC1 (stereo not drawn) | -1 | 1.7 | . | 1.1 | 5% | -1.6 | -11 | -1
CC(C)NC(=O)Nc1ccc2c(c1)C(=O)N([C@H](C)CO)C[C@H](C)[C@@H](CN(C)S(=O)(=O)c1cn(C)cn1)O2 | . | -408 | -1.1&-8.3 | -0.1 | . | . | 1 | .
Cc1[nH]c(=O)[nH]c(=O)c1S(=O)(=O)NCC12CC3CC(CC(C3)C1)C2 | -12 | 1.7 | . | 0.1 | 0% | -4.8 | -6 | -6
COc1cccc(-c2cc(C(=O)N3CCCCC3C)no2)c1 (stereo not drawn) | -8 | 3.0 | . | -4.7 | -6% | 2.2 | -3 | 4
COC(=O)c1cc2c(ccn2-c2ccc(F)cc2)n1CC(=O)OC(C)C | -12 | 14 | 0.6 | 0.7 | 3% | 0.7 | -2 | 10
NS(=O)(=O)c1ccc(NC(=S)NC(=O)c2ccc(-c3ccccc3)cc2)cc1 | 1 | 0.5 | 1.8 | -0.5 | . | 1.1 | 21 | -1
COc1cccc(CNCc2ccc(SC)cc2)c1OC | -4 | 1.3 | 8.2 | 0.1 | 3% | 4.6 | 1 | -8
Cc1nc(-c2cc(-c3nc(-c4ccc(C(F)(F)F)cc4)no3)no2)cs1 | -12 | 2.0 | -0.5 | -0.4 | . | -2.1 | 0 | -12
COc1ccc(Nc2nc(C)nc3c2oc2ccccc23)cc1 | 22 | 2.8 | 2.6 | -0.2 | 0% | 4.1 | 13 | 0
CCOc1cc(C(C(=O)NCC2CCCO2)N(C(=O)Cn2nnc3ccccc32)c2cccc(OC)c2)ccc1O (stereo not drawn) | 8 | 6.6 | 1.5 | -0.4 | 84% | -4.0 | -4 | -10
C[C@@H](C(=O)Nc1ccc2ccccc2c1)[C@@H]1C[C@@]1(C)[C@@H](N)c1ccccc1 | 2 | 1.8 | -2.3 | 0.0 | . | -0.3 | 1 | 4
COc1cccc(/C=C2\SC(=O)N(CCC(=O)NNC(=O)c3ccccc3Cl)C2=O)c1 | 4 | -2.6 | . | 0.8 | . | -0.1 | -11 | 8
COc1ccccc1-c1nc2c(c(SCC(=O)N3CCCCC3)n1)Cc1c(CO)cnc(C)c1O2 | 0 | 1.9 | -2.4 | 1.0 | . | -1.5 | 2 | 8
CCOC(=O)Cc1nnc(NC(=O)COc2ccc(C)cc2)s1 | -4 | -0.2 | . | 0.2 | 7% | 1.7 | 5 | 3
COc1ccc(NC2=NCC(=O)N2c2ccccc2F)cc1 | -6 | 0.9 | . | -0.9 | -6% | -4.3 | -1 | 8
CC(C)OC(=O)/C(=C\c1ccc2c(c1)c1ccccc1n2C)NC(=O)c1ccccc1 | -2 | 0.7 | . | -0.2 | -2% | -0.8 | 6 | 31
Cc1nc(/N=C(\N)N(C)C)[nH]c(=O)c1C | 3 | 0.2 | -1.0 | -1.1 | -3% | 7.8 | 1 | -14
Oc1cccc(C=NCc2ccccc2)c1O | -5 | 6.5 | . | 0.4 | 1.9µM* | -2.8 | -5 | -19
CCCCCCSc1ccc([C@@H]2[C@@H]3C(=O)N(CC)C(=O)[C@@H]3[C@]3(C(=O)OC)CCCCN23)cc1 | . | 7.7 | -49 | 0.8 | . | . | 0 | .
O=C(O)c1ccc(Nc2ncnc3c2cnn3Cc2ccccc2)cc1 | 11 | 3.3 | 0.4 | -0.6 | 13% | 6.4 | . | -2
Cc1ccc(NC(=S)NCC2CCCO2)c(OC(F)F)c1 (stereo not drawn) | -13 | 3.0 | . | -0.3 | . | 0.6 | -3 | -29
CC(C)OC(=O)CC1C(=O)NCCN1C(=S)NC(=O)CCc1ccccc1 (stereo not drawn) | 8 | -1.1 | -12 | 0.3 | . | -0.5 | 4 | 4
CCc1ccc(NC(=O)C(CC)Sc2nc3cc4c(cc3c(=O)n2Cc2ccco2)OCO4)cc1 (stereo not drawn) | -5 | 1.0 | . | 0.5 | -2%&31% | -1.9 | 67 | 38
O=C(CSc1nc2ccccc2c(=O)[nH]1)Nc1ccc(N2CCOCC2)cc1 | 5 | 0.7 | -0.1 | -0.4 | . | 0.2 | 4 | -4
CC(=O)Nc1ccc(/C(C)=N/NC(=O)c2ccc(CN3CCOCC3)cc2)cc1 | 4 | -0.5 | -0.6 | -0.3 | . | 7.6 | . | -11
CC1CN(C(=O)CSc2nnc(C3CCCCC3)n2N)CC(C)O1 (stereo not drawn) | . | -4.5 | -1.0 | 0.1 | . | . | 2 | .
Cc1ccc(OCC(=O)N/N=C2\CC(=O)CC(C)(C)C2)c(Br)c1 | -10 | 0.1 | -4.8 | 0.4 | -1% | -3.6 | -3 | 11

Quoted from the results shown, 4 compounds:
SMILES | Calb FLC | LANA-H2A inh | AF4-AF9 inh | Bfl-1 A1 inh | Vif A3G | RanGTP-Impb inh | Beta cell apopt | T cruzi repl
CC(C)OC(=O)/C(=C\c1ccc2c(c1)c1ccccc1n2C)NC(=O)c1ccccc1 | -2 | 0.7 | . | -0.2 | -2% | -0.8 | 6 | 31
Cc1nc(/N=C(\N)N(C)C)[nH]c(=O)c1C | 3 | 0.2 | -1.0 | -1.1 | -3% | 7.8 | 1 | -14
Oc1cccc(C=NCc2ccccc2)c1O | -5 | 6.5 | . | 0.4 | 1.9µM* | -2.8 | -5 | -19
CCCCCCSc1ccc([C@@H]2[C@@H]3C(=O)N(CC)C(=O)[C@@H]3[C@]3(C(=O)OC)CCCCN23)cc1 | . | 7.7 | -49 | 0.8 | . | . | 0 | .

Later entries
SMILES | Calb FLC | LANA-H2A inh | AF4-AF9 inh | Bfl-1 A1 inh | Vif A3G | RanGTP-Impb inh | Beta cell apopt | T cruzi repl
Cc1ccccc1NC(=O)CCN1CCN(Cc2ccccc2)CC1 | 5 | 0.7 | . | 0.0 | 18% | -1.1 | -6 | 5
O=C(COC(=O)c1cnccn1)NCCc1ccc(Cl)cc1Cl | -3 | 1.4 | 1.3 | 1.1 | . | 1.1 | -2 | 11
c1ccc(CSc2ccc(-c3cccnc3)nn2)cc1 | -4 | 3.0 | -0.9 | -0.9 | 9% | 0.4 | 0 | -8
Cc1oc2ccc(OCc3ccc(F)cc3)cc2c1C(=O)O | 56 | 2.8 | . | -1.6 | ? | 2.3 | -10 | 3
CCC(=O)Nc1ccccc1Oc1ccccc1 | 24 | 3.5 | . | -0.9 | 8% | -4.1 | -3 | -7
C[C@H](NC(N)=O)C(=O)N1CCN(S(=O)(=O)c2ccc3ccccc3c2)CC1 | -11 | 5.0 | -0.2 | -0.3 | . | 1.0 | -5 | -1
CS(=O)(=O)CC(=O)Nc1ccc2nc3n(c(=O)c2c1)CCCCC3 | -2 | 0.3 | 5.8 | 0.8 | 6% | 2.8 | -2 | 1
CN=c1scc(C)n1/N=C/c1cc(Br)c(O)c(OC)c1 | 16 | -1.6 | 12 | -0.1 | 18% | -0.3 | 5 | -9

Screening data from PubChem BioAssay.
